GIV Gai3 FP – inhibitors of GIV peptide binding to Galpha-i3, primary screen, biochemical, fluorescence polarization, FITC-GIV GBA peptide, rat Galphai3; hit rate 0.42% among 210,000; percent of control (FP), % (concentration not given with the values); AID 1224905, 2016; 90 min; stronger effect = lower value; scaled: aluminum fluoride 0%, vehicle 100%;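 active means replicate mean at 85% of control or lower, very high polarization wells dropped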;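 further: wells of about 15 µL received 100 nL stock; the first replicate is given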
Target sequence (P08753 whole entry, looked up): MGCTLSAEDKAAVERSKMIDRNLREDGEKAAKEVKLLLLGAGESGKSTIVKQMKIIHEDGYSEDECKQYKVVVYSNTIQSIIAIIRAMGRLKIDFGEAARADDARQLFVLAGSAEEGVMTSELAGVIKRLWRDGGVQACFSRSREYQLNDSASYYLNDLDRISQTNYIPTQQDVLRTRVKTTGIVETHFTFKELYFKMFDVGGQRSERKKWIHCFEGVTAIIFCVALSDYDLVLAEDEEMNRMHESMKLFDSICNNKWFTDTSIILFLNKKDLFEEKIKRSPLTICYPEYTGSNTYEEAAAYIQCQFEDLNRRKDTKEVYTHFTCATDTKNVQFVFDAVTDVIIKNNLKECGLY
HCMV NEC inh – inhibitors of HCMV UL50-UL53 interaction, biochemical, HTRF. normalized percent inhibition. inhibition, % (concentration not given with the values). hit rate 0.15% among 190,000. AID 1918969, 2023;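 active means both replicates at 50% or more, plus weaker picks with an unusually low signal ratio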;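 further: stock transfer was 100 nL into about 20 µL; 0% = negative control wells and 100% = wells with untagged competitor protein; inactives centre near -12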
Sa growth inh – S. aureus growth inhibition at 42 and 30 °C, primary screen, LtaS inhibitor project, RN4220, two temperatures | relative growth, % (test concentration not listed) | OD600, 20 h, 42 °C; stronger effect = lower value | hit rate 0.53% among 170,000 | AID 720641, 2013;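 active means growth at 42 °C up to 50% and 20 or more points under that at 30 °C, or under 10% at both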;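 further: 300 nL library stock went into each well; scaled to the means of positive and negative controls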
Sa growth inh second temp – second read-out of Sa growth inh, no call of its own (marks repeat the call); relative growth, %; measured here: growth at 30 °C;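 optical density after 20 h as mean of two plates; 100% = untreated growth and lower means inhibition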
* marks the source's active call; other numbers are inactive results; · = no result given; & = joins results of further samples.

SMILES | GIV Gai3 FP | HCMV NEC inh | Sa growth inh | Sa growth inh second temp
Brc1cnc(-n2cccc2)nc1 | 105 | -18 | · | ·
O=C(C1CCCN(S(=O)(=O)c2cccc3nsnc23)C1)N1CCC(Cc2ccccc2)CC1 (configuration not stated) | 98 | -55 | · | ·
Cc1ccc(C)c(Oc2ncnc3c2oc2ccccc23)c1 | · | -33 | 94 | 93
Nn1c(C(=O)NCc2cccnc2)nc2ccccc2c1=O | 99 | -21 | 96 | 88
Cc1ccc(C)n1-c1ccc(-n2cccc2)cc1 | 108 | -18 | 89 | 92
Cc1cc(-n2c(SCC(=O)N3CCCC3)nc3n[nH]c(C)c3c2=N)ccc1Cl | 100 | -18 | 101 | 68
O=C(COC(=O)/C=C/c1cccs1)Nc1nc2ccccc2s1 | · | -21 | 109 | 94
Brc1ccc(-c2ccc(CNCc3ccccn3)o2)cc1 | 106 | -22 | · | ·
Cc1cc(C(F)(F)F)nc(SCCNC(=O)c2ccccc2F)n1 | 105 | · | 101 | 75
CCCc1cnc(N2CCCN(S(=O)(=O)c3ccc(C)cc3)CC2)nc1 | 102 | · | 97 | 88
CCc1cc2c(cc3c(=O)n(CC(=O)NC(C)c4ccccc4)ncn32)s1 (configuration not stated) | 94 | -23 | 111 | 76
CCn1nc(C)cc1/C(N)=N/O | 103 | 0 | 104 | 105
CC(=O)c1ccc(NC(=O)CC2Oc3ccc(C)cc3NC2=O)cc1 (configuration not stated) | 103 | -21 | 109 | 91
COc1ccc(-c2nc(CNC(=O)c3ccc(-c4noc(C5CC5)n4)cc3)no2)cc1 | 107 | -3 | · | ·
Cc1ccc(-n2c(SCC(=O)Nc3c(C)cccc3C)nc(O)c(C)c2=O)cc1 | 104 | -14 | 104 | 90
O=C(OCC(=O)N(Cc1ccccc1)C1CCS(=O)(=O)C1)c1ccc(-n2cnnn2)cc1 (configuration not stated) | · | -5 | 84 | 97
CN(C(=O)c1cccc(NC(=O)[C@H]2[C@@H]3C[C@@H]4[C@H]2C(=O)O[C@@H]4C3)c1)c1ccccc1 | 99 | · | 83 | 84
Cc1ccc(NC(=O)c2ccc(Cn3cnc4cccnc43)cc2)cc1 | 102 | -2 | · | ·
CCc1nonc1NC(=O)c1ccccc1 | 104 | -19 | 86 | 81
O=C(NC1CCCCCC1)c1csc2c1CCCC2 | 103 | · | 113 | 86
Cc1n[nH]c(C)c1CC(=O)NCCc1ccccc1 | 105 | -16 | 107 | 95
N#CC1=C(NC(=O)c2ccc(Cl)c(Cl)c2)CCC1 | 104 | -43 | 103 | 98
O=C(NCc1ccccc1)C(c1ccc(F)cc1)N(Cc1ccco1)C(=O)c1ccccn1 (configuration not stated) | 103 | -7 | 109 | 90
N#Cc1ccc(C(=O)CSc2n[nH]c(=O)n2Cc2ccco2)cc1 | 102 | -46 | 88 | 70
CC(C)NC(=O)COc1ccc(Cl)cc1Cl | · | -15 | 112 | 83
O=C(C1CCC(Cn2c(=S)[nH]c3ccccc3c2=O)CC1)N1CCN(c2ccc(Cl)cc2)CC1 (configuration not stated) | 104 | · | 98 | 79
Cc1ccccc1NC(=O)CSc1cn(CC(=O)N2CCCCCC2)c2ccccc12 | 107 | · | 111 | 97
O=C1c2ccccc2C(=O)N1CCN1C(=O)c2ccccc2C1=O | 101 | -98 | 98 | 95
CC(Oc1ccccc1F)C(=O)NC1CCS(=O)(=O)C1 (configuration not stated) | 107 | -7 | 96 | 90
COc1ccc(S(=O)(=O)N(CC(=O)NC2CC2)Cc2ccccc2)cc1 | 98 | -15 | 98 | 92

3 compounds out of the list, sorted by molar mass, lowest first.
SMILES | GIV Gai3 FP | HCMV NEC inh | Sa growth inh | Sa growth inh second temp
CC(C)NC(=O)COc1ccc(Cl)cc1Cl | · | -15 | 112 | 83
O=C1c2ccccc2C(=O)N1CCN1C(=O)c2ccccc2C1=O | 101 | -98 | 98 | 95
CC(=O)c1ccc(NC(=O)CC2Oc3ccc(C)cc3NC2=O)cc1 (configuration not stated) | 103 | -21 | 109 | 91

(list continues)
SMILES | GIV Gai3 FP | HCMV NEC inh | Sa growth inh | Sa growth inh second temp
Cc1cc(C)c(C2=NON3N(C(=O)c4ccc(S(=O)(=O)N5CCOCC5)cc4)c4ccccc4N23)c(C)c1 | 97 | -18 | 88 | 84
CN(C)C(=O)CSc1nc(C(C)(C)C)cs1 | 100 | 10 | 96 | 79
O=C(c1cnn(-c2nc3ccccc3s2)c1)c1ccccc1O | · | -26 | 92 | 86
COc1ccc(-c2nn(-c3ccc(C)c(Cl)c3)c3c2cnc2ccc(F)cc23)cc1OC | 101 | · | 107 | 86
COc1ccccc1CNn1c(C)nnc1SCc1ccccc1F | 103 | -19 | 101 | 91
CCCCOC(=O)COc1ccc2c(=O)c(Oc3ccc(OC)cc3)c(C(F)(F)F)oc2c1 | 100 | -13 | · | ·
CCn1cnc(S(=O)(=O)N2CCCC(C(=O)N3CCC(N4CCCCC4)CC3)C2)c1 (configuration not stated) | 102 | -5 | · | ·
C=CCN1C(=O)/C(=C2\SC(C)=C(C)N2c2nccs2)S/C1=N\S(=O)(=O)c1ccccc1 | · | -13 | 117 | 108
O=C(Cn1c(CN2CCCCC2)nc2ccccc21)N1CCOCC1 | 98 | -14 | · | ·
COc1cc2c(cc1OC)CN(CC#N)CC2 | · | -13 | 84 | 83
Clc1ccc(-c2ccn[nH]2)cc1 | 103 | -27 | 98 | 87
CC(O)CNc1nc2ccccc2n1CC(=O)NC(C)C(C)C (configuration not stated) | · | -10 | 83 | 88
CCOC(=O)c1cc(NC(=O)c2ccc(F)cc2)c(=O)n2c1oc1ccc(Cl)cc12 | 106 | 13 | 104 | 102
CCS(=O)(=O)c1nc(S(=O)(=O)c2ccc(Cl)cc2)c(NCc2ccccc2Cl)s1 | 108 | -13 | 108 | 92
CCOC(=O)/C=C1\CCC(/C=N/Nc2ccccc2)=C1N1CCOCC1 | · | -2 | 89 | 103
N=C1C(c2nc3ccccc3c(=O)[nH]2)=C(O)CN1Cc1ccc(Cl)cc1 | 107 | -25 | · | ·
Nc1c(C(=O)O)cnn1-c1ccccc1 | 99 | -7 | 90 | 88
CCOC(=O)C(C(=O)O)c1ccccc1 (configuration not stated) | 99 | -4 | 107 | 101
O=C1CCC(=O)N1CCc1c[nH]c2ccc(OCc3ccccc3)cc12 | 96&100 | -16 | 101 | 92
COc1cn(CC(=O)Nc2c(C)cc(C)cc2C)c(CN2CCCCC2)cc1=O | 106 | · | 104 | 84
Cc1ccc(NC(=O)Cn2c(=O)n(Cc3ccco3)c(=O)c3oc4ccccc4c32)cc1C | 102 | · | 128 | 95
Cn1c(C(O)C(O)c2ccccc2)nc2ccccc21 (configuration not stated) | · | -13 | 90 | 88
Cc1cccc(NC(=O)CS(=O)(=O)c2cn(C)c3ccccc23)c1C | 100 | · | 99 | 85
CCC1Cn2c(C(=O)NCCN3CCCC3)cc3cccc(c32)O1 (configuration not stated) | 106 | -12 | · | ·
Cn1c(=N)n(CC(=O)c2ccco2)c2ccccc21 | 103 | -25 | 88 | 82
CCCCN1C(=O)C(O)(CC(=O)c2ccccc2)c2ccccc21 (configuration not stated) | · | -30 | 108 | 88
COc1ccccc1Cn1cnc2c3ccccc3n(Cc3ccccc3)c2c1=O | 102 | -7 | · | ·
O=C(COC(=O)Cc1ccc(-c2ccccc2)cc1)NCc1ccco1 | · | 1 | 106 | 99
O=C(c1ccc(=O)[nH]n1)N1CCN(c2ccccc2)CC1 | 102 | -17 | 90 | 95
Cc1onc(-c2ccncc2)c1C(=O)NCCCN1CCN(c2cccc(Cl)c2)CC1 | 93 | 1 | · | ·
O=C(O)c1cc(Nc2ccccc2C(=O)O)nc(Nc2ccccc2C(=O)O)n1 | 86 | -19 | 100 | 92
COc1ccc(CC(=O)NCCc2csc(-c3cccc(C)c3)n2)cc1 | 92 | · | 79 | 78
COC(=O)c1cccc(Nc2ncnc3ccc(Br)cc23)c1 | 106 | -19 | · | ·
COc1ccc(-c2nn(CN3CCCC3)c(=S)n2CC(C)C)cc1 | · | -29 | 106 | 81
CC(=O)Nc1nc2ccccc2s1 | · | -13 | 115 | 69
COc1ccc(OC)c(CNC(=O)C2CCN(S(=O)(=O)c3cn(C)cn3)CC2)c1 | 94 | · | 122 | 90
COc1ccc(CCNC(=O)CCn2c(=O)c3ccccc3n(Cc3cc(C)ccc3C)c2=O)cc1OC | 102 | -9 | 99 | 80
O=S(=O)(c1ccc(Br)cc1)N1CCC(N2CCCCC2)CC1 | 98 | -4 | 103 | 91
CCc1ccc(NC(=O)N2CCC(n3cnc4cccnc43)CC2)cc1 | 95 | -1 | · | ·
O=C(NC1CCS(=O)(=O)C1)c1ccccc1C(=O)c1ccccc1 (configuration not stated) | 103 | -22 | 91 | 84
COc1ccc(-c2cc(C(F)(F)F)n3nc(C(=O)Nc4cccc(C(C)=O)c4)cc3n2)cc1OC | 102 | -14 | · | ·
COc1cc(/C=C2\SC(=S)N(CC(=O)Nc3nnc(CC(C)C)s3)C2=O)cc(OC)c1OC | 108 | -23 | · | ·
CCCCn1c(N)c(N(Cc2ccccc2)C(=O)COc2ccccc2F)c(=O)[nH]c1=O | · | -17 | 113 | 90
CCSc1ccc2nnc(-c3ccc(OC)cc3)n2n1 | 138 | · | 71 | 54
O=C(COc1ccc2c(c1)OCO2)Nc1cc(Cl)cc(Cl)c1 | 99 | · | 92 | 74
O=C(Nc1ccc(F)cc1)N1CCN(c2ccc3nnc(-c4ccccc4)n3n2)CC1 | 96 | -22 | 87 | 84
CN(C)C(=O)c1cnc(Cl)c2ccccc12 | 104 | -10 | · | ·
CCOc1ccccc1C(=O)Nc1ccccc1 | 106 | -47 | 61 | 65
CC(C)c1ccc(S(=O)(=O)Nc2cc(C(=O)O)cnc2N(C)C)cc1 | 75* | -24 | · | ·
Cc1nc(N=Nc2ccc(S(=O)(=O)O)cc2S(=O)(=O)O)c(COP(=O)(O)O)c(C=O)c1O | 102 | -18 | · | ·
More compounds follow:
SMILES | GIV Gai3 FP | HCMV NEC inh | Sa growth inh | Sa growth inh second temp
CC(CC(=O)O)CC(=O)Nc1ccccc1C(=O)O (configuration not stated) | 99 | · | 97 | 86
CC(=O)Nc1ccc(NC(=O)/C=N/O)cc1 | 103 | · | 90 | 95
COc1ccc(C(=O)CSc2ncccn2)c(OC)c1 | · | -14 | 110 | 96
CCc1ccc(N=C2NC(=O)/C(=C/c3cc(C)n(CC)c3C)S2)cc1 | 119 | -15 | 128 | 98
CC(C)(C)OC(=O)N/N=C\c1cccnc1 | 97 | -20 | 97 | 95
COc1ccc(C(=O)NC(c2ccc(C)cc2)c2cc(Cl)c3cccnc3c2O)cc1 (configuration not stated) | 80* | · | 83 | 89
Cc1ccc2c(c1)c(=O)c1ccccc1n2CC(=O)Nc1cc(Sc2ccc(F)cc2)cc([N+](=O)[O-])c1 | 110 | -9 | · | ·
COc1ccc(N2CCN(CC(=O)NC(=O)NC3CCCC3)CC2)cc1 | · | -15 | 83 | 89
CCOC(=O)Cn1nc(-c2ccc(F)cc2)oc1=O | · | -30 | 102 | 92
Cc1cc(C)c(S(=O)(=O)N2CCN(c3cccc(Cl)c3)CC2)c(C)c1 | 101 | -13 | · | ·

In the list so far, 14 contain a Cl atom:
SMILES | GIV Gai3 FP | HCMV NEC inh | Sa growth inh | Sa growth inh second temp
Cc1cc(-n2c(SCC(=O)N3CCCC3)nc3n[nH]c(C)c3c2=N)ccc1Cl | 100 | -18 | 101 | 68
N#CC1=C(NC(=O)c2ccc(Cl)c(Cl)c2)CCC1 | 104 | -43 | 103 | 98
CC(C)NC(=O)COc1ccc(Cl)cc1Cl | · | -15 | 112 | 83
O=C(C1CCC(Cn2c(=S)[nH]c3ccccc3c2=O)CC1)N1CCN(c2ccc(Cl)cc2)CC1 (configuration not stated) | 104 | · | 98 | 79
COc1ccc(-c2nn(-c3ccc(C)c(Cl)c3)c3c2cnc2ccc(F)cc23)cc1OC | 101 | · | 107 | 86
Clc1ccc(-c2ccn[nH]2)cc1 | 103 | -27 | 98 | 87
CCOC(=O)c1cc(NC(=O)c2ccc(F)cc2)c(=O)n2c1oc1ccc(Cl)cc12 | 106 | 13 | 104 | 102
CCS(=O)(=O)c1nc(S(=O)(=O)c2ccc(Cl)cc2)c(NCc2ccccc2Cl)s1 | 108 | -13 | 108 | 92
N=C1C(c2nc3ccccc3c(=O)[nH]2)=C(O)CN1Cc1ccc(Cl)cc1 | 107 | -25 | · | ·
Cc1onc(-c2ccncc2)c1C(=O)NCCCN1CCN(c2cccc(Cl)c2)CC1 | 93 | 1 | · | ·
O=C(COc1ccc2c(c1)OCO2)Nc1cc(Cl)cc(Cl)c1 | 99 | · | 92 | 74
CN(C)C(=O)c1cnc(Cl)c2ccccc12 | 104 | -10 | · | ·
COc1ccc(C(=O)NC(c2ccc(C)cc2)c2cc(Cl)c3cccnc3c2O)cc1 (configuration not stated) | 80* | · | 83 | 89
Cc1cc(C)c(S(=O)(=O)N2CCN(c3cccc(Cl)c3)CC2)c(C)c1 | 101 | -13 | · | ·

Assay outcomes (PubChem)
